Screening results from PubChem.
TRPML1 blocker: blocks the human TRPML1 channel. TRPML1-inducible cells, Ca2+ dye fluorescence, FDSS; active compounds read low; inhibition of EC80 agonist-evoked calcium signal. activity change, negative = inhibition, % (concentration not given with the values). 390,000 compounds, 0.02% hits; in the data active means activity change below about -50%; inconclusive means about -30% to -50%; inactive means above about -30%;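 note: stimulus is agonist 54-4 at its EC80 concentration; % is set by controls: 0 for no effect and ±100 for the full control effect; the text of the record puts the active cut at -80%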
Target sequence (Q9GZU1 whole entry, looked up): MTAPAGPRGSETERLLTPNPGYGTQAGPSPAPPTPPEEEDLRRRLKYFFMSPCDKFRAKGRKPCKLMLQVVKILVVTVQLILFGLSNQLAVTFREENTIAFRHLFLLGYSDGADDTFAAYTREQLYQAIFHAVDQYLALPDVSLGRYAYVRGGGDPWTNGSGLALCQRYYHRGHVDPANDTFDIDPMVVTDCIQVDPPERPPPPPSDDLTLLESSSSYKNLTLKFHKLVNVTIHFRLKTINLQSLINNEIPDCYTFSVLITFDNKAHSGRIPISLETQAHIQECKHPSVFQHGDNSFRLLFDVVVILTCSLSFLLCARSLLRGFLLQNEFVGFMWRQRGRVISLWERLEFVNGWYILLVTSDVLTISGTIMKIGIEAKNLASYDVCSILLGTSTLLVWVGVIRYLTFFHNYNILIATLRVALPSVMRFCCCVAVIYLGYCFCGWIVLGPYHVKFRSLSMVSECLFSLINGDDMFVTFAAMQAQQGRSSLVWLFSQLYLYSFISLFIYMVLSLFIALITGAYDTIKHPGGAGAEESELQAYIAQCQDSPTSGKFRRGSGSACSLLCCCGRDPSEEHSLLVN
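TRPML1-DL cells, Tet-induced overnight (~16 h, 37 °C) at 1,500 cells/well, were loaded with Ca8 no-wash dye plus quencher for 45-90 min at room temperature. Compounds were pinned during FDSS kinetic reading; agonist 54-4 at EC80 (4 uM final) then added.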
TRPV1 potentiator: potentiators of human vanilloid receptor 1 (TRPV1); AID 540277; Q8NER1; potentiation, % at 8.33 µM; TRPV1-expressing cells, Fluo-8 calcium influx, capsaicin EC20 potentiation; host cell line not named in the record; control for the full effect not named in the record; 320,000 compounds, 0.02% hits; active means potentiation above 80%; inconclusive means 30% to 80%; inactive means below 30%; note: 0% is about no effect
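Fluo-8 calcium influx in TRPV1-expressing cells, kinetic read (ex 480/em 520 nm). Compound added and read 3 min for agonist activity, followed by capsaicin at EC20 final and 2 min further read for enhancement.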
Menin MLL FP FL: inhibitors of human menin-MLL interaction, wild-type MLL peptide | Fluorescence polarization, fluorescein-MLL peptide displacement from menin | FP activity change, % at 61.4 µM | 290,000 tested, under 10 active; inconclusive = falling polarisation curve, or a change in total fluorescence; inactive = total fluorescence flat and polarisation flat or rising; no compound was filed as active; the % refers to the polarisation; negative = inhibition;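 note: % of control where 0% means no effect; inhibitors lower the polarisation; unlabelled MLL peptide was the positive control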
TRPML1 agonist: agonists of human TRPML1 channel | Q9GZU1 | TRPML1-expressing cells, Ca2+ dye fluorescence, FDSS; host cell line not named in the record; reference of the full effect not given here | activation, % (no concentration beside the values) | 410,000 compounds, 0.12% hits | AID 624414; in the data active = activation above about 50%; inconclusive = about 30% to 50%; inactive = below about 30%; note: 0% is about no effect; the text of the record puts the active cut at 80%
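Tet-induced TRPML1-DL cells, 1,500 per well, cultured overnight, were loaded with a no-wash Ca2+ dye for 45–90 min. Calcium fluorescence was recorded on the FDSS for 110 s after compound addition, before the EC80 agonist (4 uM 54-4) was added.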
PINK1 expr mod: changes PINK1 expression; PINK1 immunofluorescence, high-content cytometry, 24 h; Potency, µM (highest dose often 76.6 µM), inactives show at the top dose activation (PINK1 increase), usual class: activators; 410,000 compounds, 0.2% hits; active = well fitted activation curve with a large enough effect; inconclusive = small, poorly fitted or top-dose-only effect; inactive = flat fitted curve, though single readings scatter; cell line not stated here;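 note: potency is the fitted concentration of half-maximal effect; % of control where 0% means no effect; nearly all actives have a fitted effect of over 65% in size; a mitochondrial uncoupler was the plate control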
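PINK1 protein, normally rapidly degraded, was detected by immunofluorescence after 24 hour compound treatment of a stable cell line. Titration data (5 concentrations) came from laser-scanning cytometry, with CCCP-treated wells as controls.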
ClpP mod: qHTS Assay for Activators of ClpP; ATP-dependent Clp protease proteolytic subunit (Bacillus subtilis (strain 168)), P80244; purified B. subtilis ClpP, FRET peptide cleavage, 20 min; Potency, µM (titrated, usually from 57.5 µM), for the others: at the highest dose activity change, negative = active; 340,000 compounds, 1.9% hits; AID 651965, 2013; active = well fitted falling curve with a large enough effect; inconclusive = small, poorly fitted or top-dose-only effect; inactive = no such curve, though single readings can be large or run the other way; note: potency is the fitted concentration of half-maximal effect; the source files actives as falling curves though it sought activators and does not explain the sign; nearly all actives have a fitted effect of over 65% in size; many hits overshoot -100%
Target sequence (P80244 whole entry, looked up): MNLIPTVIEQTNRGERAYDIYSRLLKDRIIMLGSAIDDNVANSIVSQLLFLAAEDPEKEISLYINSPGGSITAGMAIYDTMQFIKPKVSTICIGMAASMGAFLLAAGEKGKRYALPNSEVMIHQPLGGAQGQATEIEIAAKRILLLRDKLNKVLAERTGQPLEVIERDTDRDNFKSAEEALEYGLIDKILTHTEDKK
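ClpP 10 microg/mL final, pH 8 Tris/KCl buffer with BSA, glycerol, Tween-20; compound pinned in; FRET-FV substrate; RT 20 min; Ex320/Em430; ΔFRET vs ADEP 5.8 microM, DMSO, no enzyme.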
Sfp inh: Sfp phosphopantetheinyl transferase inhibition | Q9F4F7 | Biochemical Sfp PPTase activity, qHTS | Potency, µM, without a hit: max response, negative = inhibition, most hits filed as inhibitors | 310,000 compounds, 3.5% hits | AID 1490; active = well fitted inhibition curve with a large enough effect; inconclusive = small, poorly fitted or top-dose-only effect, or another doubt; inactive = no such curve, though single readings can be large or run the other way;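 note: the enzyme is Sfp with the accession as filed and its product quenches rhodamine fluorescence; potency is the fitted concentration of half-maximal effect; 0% = enzyme reaction without inhibitor and -100% = no enzyme wells; top concentration of the series not given in the record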
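Sfp 15 nM + cpd, 15 min RT; start w/ rhodamine-CoA 5 uM, BHQ-2-YbbR 12.5 uM (final); 50 mM Hepes pH 7.6, 10 mM MgCl2, 0.01% NP-40, 0.01% BSA; read 525/598 nm at 0 and 30 min.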
* = called active by the depositor; ? = inconclusive; · = no result given; & = joins results of further samples; [ ] = dose if it differs, or a comment.

molecule,TRPML1 blocker,TRPV1 potentiator,Menin MLL FP FL,TRPML1 agonist,PINK1 expr mod,ClpP mod,Sfp inh
Cc1cccc(NC(=O)CCCN2C(=O)c3ccccc3C2=O)n1,30,3,6.8,-0.2,4.9%,-0.6%,16%
COc1ccc(NC(=O)CCN2C(=O)C3C4C=CC(C4)C3C2=O)cc1 (stereo not drawn),-4,4,-0.3,0.0,0.3%,·,27%
Cc1ccc(NC(=O)Cc2nnc(N)s2)cc1,7,·,3.5,0.7,-0.8%,·,9%
COc1cccc2c(O)cc(=O)n(C)c12,18,8,3.6,0.0,1.4%,35µM*,12%
O=C(Cn1c(=O)c(CNc2ccccc2)cc2cc3c(cc21)OCCO3)Nc1ccccc1Cl,8,16,·,4.1,1.2%,5.5%,·
CCc1ccc(-c2c(C)sc(NC(=O)C3CCC3)c2C#N)cc1,11,7,1.1,0.2,-2.6%,1.8%,5%
C=C1C[C@]23C[C@@]1(O)CC[C@H]2[C@@]12C=C[C@H](O)[C@@](C)(C(=O)O1)[C@H]2[C@@H]3C(=O)O,-8&-2,9&-5,·,-0.4&0.4,-0.1%&0.4%,-0.5%&-1.1%,·
Cc1ccc(NC(=O)COC(=O)c2c(C)nn(-c3ccccc3)c2C)cc1,7,-9,·,0.6,2.1%,0.9%,·
Cc1cccc(-c2nc(Cn3c(SCc4cc(C)ccc4C)nc4ccncc43)c(C)o2)c1,-9,·,·,-0.4,2.0%,0.9%,·
COc1ccc(C(CC(=O)O)N2Cc3ccccc3C2=O)cc1OC (stereo not drawn),-16,13,3.1,3.4,-1.2%,0.0%,14%
O=C(CSc1nnc(-c2cccnc2)o1)Nc1cccc(F)c1,82,-10,·,1.0,4.6%,·,·
COc1ccc2c(c1)-c1nc(NC(=O)c3cc(Cl)ccc3OC)sc1CC2,?,·,·,1.2,0.8%,-12%,·
CCOCCCNC(=O)N1CCOCC1,8,6,5.7,-0.5,2.5%[38.3 µM],0.8%,17%
COc1ccccc1S(=O)(=O)Cc1ccc(C(=O)NCCN(C)C)o1,2,·,·,-0.2,0.7%,2.3%,·
CCOC(=O)[C@@H]1[C@H]2COc3ccccc3[C@@H]2N2C(=O)N(c3ccc(Br)cc3)C(=O)[C@]12C,30,·,·,-1.0,-1.7%,-1.2%,·
COc1cccc(C(=O)N/N=C/C(Br)=C/c2ccccc2)c1,9,2,-1.0,0.7,1.0%,0.9%,-11%
NC(=O)c1ccsc1NC(=O)CSc1ncnc2sccc12,12,·,·,0.7,-2.9%,·,·
Oc1[nH]c2ccccc2c1C=Nc1ccc2c(c1)OCO2,11,-14,-2.3,5.6,-3.3%[38.3 µM],0.9%,3%
O=C(O)CCC(=O)NNc1nc2ccccc2nc1-c1ccccc1,-18,1,-1.8,-0.6,0.3%,·,56µM*
COc1ccc(CN2CCN(C(=O)c3cccc(OC)c3OC)CC2)cc1OC,27,10,1.9,-0.9,0.9%,·,-25%
Cc1ccc(SCC(=O)Nc2cccc(-c3nnc(-c4ccco4)o3)c2)cc1,-2,13,3.0,1.9,3.3%,?,3%
CS(=O)(=O)N1CCC2(CCN(c3ccccn3)CC2)CC1,·,·,-9.7,·,-1.2%,·,10%
O=C(NCC(c1ccco1)N1CCc2ccccc21)c1ccc([N+](=O)[O-])cc1 (stereo not drawn),17,7,·,-0.3,-0.8%,2.9%,·
Cc1ccc([C@H]2C[C@@H](O)[C@H](n3cc(-c4ccc(F)cc4)nn3)CN2Cc2cccs2)cc1,-10,·,·,-0.4,0.8%,-0.9%,·
CC(C)C(OC(=O)c1ccco1)C(=O)NCc1ccc2c(c1)OCO2 (stereo not drawn),-9,5,·,-1.1,0.0%,-0.8%,-1%
O=C(CNc1ccc(C(F)(F)F)cc1)Nc1cccc(S(=O)(=O)N2CCCCC2)c1,18,·,·,-0.1,45µM*,-2.5%,·
CCOC(=O)N1CCN(C(=O)CN(c2cc(Cl)ccc2OC)S(=O)(=O)c2ccccc2)CC1,3,9,2.5,-0.4,0.4%,1.3%,12%
COc1ccccc1C1c2c(-c3ccc(Cl)cc3)n[nH]c2C(=O)N1c1ccc(C)cc1 (stereo not drawn),-13,·,·,0.7,15%,-9.2%,·
CCC(=O)Nc1ccc(Cl)c(-c2nc3ccccc3[nH]2)c1,-8,·,·,3.1,0.4%,?,·
COC(=O)c1cc(NC(=O)N2c3ccccc3Sc3ccccc32)cc(C(=O)OC)c1,-5,·,5.3,5.1,3.2%[38.3 µM],-6.0%,7%
N#CCSc1ccc(S(=O)(=O)N2CCOCC2)cn1,3,·,·,0.0,-1.8%,·,·
COc1ccc(COC(=O)N/N=C(\C)CC(=O)Nc2ccc(Cl)cn2)cc1,-3,2,1.7,1.6,1.1%,·,18%
Cc1cccc(C(=O)C(O)(c2ccccc2)C2CCCCC2=O)c1 (stereo not drawn),7,·,·,2.3,6.8%,-0.2%,·
CCCCCNC(=O)CCCCCn1c(=O)[nH]c2ccsc2c1=O,-10,·,·,-0.4,1.5%,-1.5%,·
COc1ccc(-c2nc3ccc(NS(=O)(=O)c4ccccc4)cc3o2)cc1,-18,·,·,1.8,?,3.8%,·
O=S(=O)(NC1CCCC1)c1ccc(S(=O)(=O)N(Cc2cccs2)CC2CCCO2)cc1 (stereo not drawn),31,9,0.3,2.1,-4.1%[38.3 µM],-2.3%,10%
CC(C)N(Cc1ccccc1)C(=O)CN1C(=O)NC2(CCCC2)C1=O,-5,-3,·,-0.6,3.8%,0.6%,·
COc1cccc(-c2sc3ccc(OC)cc3c2-c2cc(F)cc(OC)c2)c1,-11,-3,·,0.3,5.3%,?,·
Clc1ccc2nc(COc3ccccc3)[nH]c2c1,-5,1,-0.4,0.5,1.6%,·,9%
Cc1sc(NC(=O)CCCC(=O)O)c(C(N)=O)c1-c1ccccc1,16,-5,2.5,-0.2,0.5%,·,2%
Cc1ccc2nc3c(cc(C#N)c(=O)n3-c3nnc(SCc4ccc(F)cc4)s3)c(=O)n2c1,-21,·,·,0.1,2.6%,4.0%,·
NC(=O)c1c(Nc2nc3c(F)cccc3s2)sc2c1CCCC2,-21,-9,?,1.9,14%,-15%,45µM*
O=C(CNS(=O)(=O)c1cccc2nsnc12)NCc1ccc(Cl)cc1,1,0,-1.8,-0.1,0.6%,-1.8%,5%
CCCCOc1ccc(C(=O)N/C(=C\c2ccc(Br)cc2)C(=O)NC2CCCCC2)cc1,-1,·,·,0.7,3.1%,-5.2%,·
CC1CN(C(=O)c2ccc(COc3ccc(C(C)C)cc3)o2)CC(C)O1 (stereo not drawn),3,1,-3.8,1.1,0.2%,0.5%,?
CCC(=O)N1CCc2cc(S(=O)(=O)CCC(=O)N3CCN(c4ccccc4)CC3)ccc21,8,-9,-2.7,-1.3,-0.1%,-1.6%,6%
COc1ccccc1NS(=O)(=O)c1ccc(C(=O)OCC(=O)NCc2ccco2)cc1,0,-9,1.4,-0.2,-1.0%,0.8%,?
O=C(Cn1ncc2c1-c1ccccc1OC2)Nc1ccc(Cl)cn1,-3,10,0.2,1.5,-0.3%,-1.5%,-11%
CN(C)c1ccc(C=O)c(F)c1,·,·,·,-0.8,5.5%,-3.8%,·
Brc1cc2c(cc1/C=N/Nc1nc(N3CCCC3)nc(N3CCOCC3)n1)OCO2,-6,-9,-0.2,0.8,1.7%,-18%,4%
CCOc1cccc(C2c3[nH]c4ccccc4c3CCN2C(=O)Cc2cccc(OCC)c2OCC)c1 (stereo not drawn),0,·,·,-0.5,-0.3%,-2.6%,·
CC(C)NC(=O)Cn1cc(C(=O)COc2ccccc2)c2ccccc21,13,-3,-2.6,-0.7,1.2%,0.8%,-7%
Cc1cccc(Nc2c([N+](=O)[O-])c(=O)oc3ccccc23)c1,-14,?,0.8,-1.1,1.8%,·,1%
Cc1ccc(S(=O)(=O)N(CC(=O)N2CCCCCC2)c2ccccc2)cc1,14,-14,2.0,2.3,28%[38.3 µM],-1.0%,7%
CCCCN1CC(=O)N2[C@H]3c4cc(OC)ccc4OC[C@@H]3[C@H](C(=O)OCC)[C@]2(C)C1=O,2,2,·,-0.8,0.4%,-1.9%,·
O=C(CN1C(=O)NC2(CCCC2)C1=O)NNC(=O)c1ccccc1F,-6,-5,·,-0.5,2.0%,1.0%,·
NC(=O)CSc1ncc2c(n1)-c1ccccc1N(Cc1cccc(F)c1)S2(=O)=O,18,·,·,0.8,1.0%,?,·
O=C(Nc1ccccc1N1CCOCC1)[C@@H]1O[C@H](CO)[C@H](O)[C@H](O)[C@H]1O,·,·,·,0.0,0.8%,0.8%,·
O=C(CC[C@H]1O[C@@H](n2ccc(=O)[nH]c2=O)[C@H](O)[C@@H]1O)N1CCN(c2ccccn2)CC1,25,·,·,0.6,0.3%,?,·
CC(C)(Oc1ccc(Cl)cc1)C(=O)NCCN1C(=O)S/C(=C/c2cccnc2)C1=O,30,-2,3.3,0.4,-0.3%,-2.4%,6%

Next part.
molecule,TRPML1 blocker,TRPV1 potentiator,Menin MLL FP FL,TRPML1 agonist,PINK1 expr mod,ClpP mod,Sfp inh
CCOC(=O)c1c(C)c(C(=O)NCc2ccc(OC)cc2)c(C)n1CC,-7,·,·,-1.4,-0.3%,-1.8%,·
COC(=O)c1ccccc1NC(=O)Nc1cccc(OCc2cc(=O)n3cccc(C)c3n2)c1,-5,·,·,0.8,0.8%,-2.4%,·
Cc1ccc(CNS(=O)(=O)c2ccccc2[N+](=O)[O-])cc1,-2,-7,3.2,1.1,-2.6%,0.0%,6%
CC(OC(=O)/C(C#N)=C/c1ccc(N(C)C)cc1)C(=O)N(C)Cc1ccccc1 (stereo not drawn),-13,?,·,?,0.7%,-2.4%,11%
Cc1ccc([C@@H]2CC=C(C(=O)O)[C@H](c3ccc(Cl)cc3)N2S(=O)(=O)c2ccccc2C)cc1,2,·,·,1.0,1.2%,-2.0%,·
Cc1nnc(SCC(=O)NNC(=O)c2ccco2)s1,26,2,·,-0.8,0.6%,·,·
C=CCn1c(NC(C)c2cc(Cl)ccc2O)nc2ccccc21 (stereo not drawn),5,·,4.4,0.1,24%,1.0%,?
